# VDR inh – inhibitors of human vitamin D receptor; P11473; VDR-SRC2-3 peptide fluorescence polarization, 2 h; Potency, µM, inactives show max response, negative = inhibition, actives largely listed as inhibitors; 400,000 tested, 0.93% active; active means well fitted inhibition curve with a large enough effect; inconclusive means small, poorly fitted or top-dose-only effect, or another doubt; inactive means no such curve, though single readings can be large or run the other way; further: series mostly up to about 120 µM
# Target sequence (P11473 whole entry, looked up): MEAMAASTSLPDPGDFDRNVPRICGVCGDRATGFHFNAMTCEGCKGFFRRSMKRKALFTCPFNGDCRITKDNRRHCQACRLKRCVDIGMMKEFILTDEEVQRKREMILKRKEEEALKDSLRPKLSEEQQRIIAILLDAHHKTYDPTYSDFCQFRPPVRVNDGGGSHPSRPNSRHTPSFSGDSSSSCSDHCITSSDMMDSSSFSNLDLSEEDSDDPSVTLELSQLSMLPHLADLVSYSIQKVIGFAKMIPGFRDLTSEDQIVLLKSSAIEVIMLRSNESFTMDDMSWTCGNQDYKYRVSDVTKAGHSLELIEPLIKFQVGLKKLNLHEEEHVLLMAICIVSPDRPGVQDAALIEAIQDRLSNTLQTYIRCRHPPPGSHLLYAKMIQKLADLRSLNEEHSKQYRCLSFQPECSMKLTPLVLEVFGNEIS
#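 Inhibition of the VDR/SRC2-3 peptide interaction is quantified by fluorescence polarization. Compounds (23 nl, pintool) incubate with the reagents for 2 hours at ambient room temperature.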
# Starred values were filed as active, the others as inactive; ? = inconclusive; & = joins results of further samples. On the % scale 0 is the no-effect control and ±100 the full control effect; potency means the concentration at half of the fitted maximal effect. The list is partial; rates above refer to the full screens.
SMILES,VDR inh
CN(C(=O)c1cccc(C#CC(C)(C)O)c1)C1CCCN(Cc2ccccc2F)C1 (configuration not stated),-9%
Cc1cccc(NC(=O)CCCN2C(=O)c3cccc4cccc(c34)C2=O)c1,0%
CCOc1ccc2c(c1)[nH]c(=S)n2C,?
Cc1cc(C)c(S(=O)(=O)Nc2nnc(C3CCCCC3)s2)c(C)c1,-21%
CCCc1cc2c(cc1NC(=O)c1ccccc1C)OCO2,-6%
COc1ccc(NC(=O)c2cnn3c(C(F)(F)F)cc(-c4ccco4)nc23)cc1OC,-11%
CCCCN(C(=O)c1ccc(C#N)cc1)c1c(N)n(CCC)c(=O)[nH]c1=O,1%
CN(c1ncc(C(F)(F)F)cc1Cl)n1cc(C(N)=O)c2ccccc2c1=O,5%
C=CCNC(=S)N/N=C1\CCS(=O)(=O)c2ccccc21,-2%
CCN1CCN(C(=O)CCNC(=O)Cn2ccc3ccccc3c2=O)CC1,16%
CCOc1ccc(NS(=O)(=O)c2ccc(NC(=O)C3CC3)cc2)cc1,2%
Cc1ccc(-c2nnc3ccccc3c2C(=O)Nc2ccc(C)c(F)c2)cc1,-1%
Cc1ccc(NC(=O)CSc2n[nH]c(-c3ccncc3)n2)c(C)c1,0%
COc1cc(NS(=O)(=O)c2ccc(NC(=O)c3cccnc3)cc2)ncn1,26%
Cc1ccc(-c2c(C(=O)Nc3ccccc3F)oc(=O)c3ccccc23)cc1,5%
O=C(Cn1cc(C(F)(F)F)ccc1=O)OCC(=O)c1ccc[nH]1,-2%
CCOc1ccc(CNS(=O)(=O)c2ccc(-c3coc(C)n3)cc2)cc1OC,20%
CCOc1ccc(/C=N/Nc2ccc(C(F)(F)F)cc2[N+](=O)[O-])cc1O,-18%
COC(=O)c1cc2sccc2n1Cc1c(C)cc(C)cc1C,1%
O=C(c1ccc(S(=O)(=O)NCc2ccco2)cc1)N1CCN(Cc2ccccc2F)CC1,11%
Cc1cc(C)c(S(=O)(=O)c2cccc(Cl)c2)c(Cl)n1,-2%
Cn1ncc([N+](=O)[O-])c1C(=O)N1CCCCCC1,-8%
O=C(CN1C(=O)CCC1=O)Nc1cccc2c1C(=O)NC2=O,-9%
O=C1NCCN(Cc2ccc(Cl)c(F)c2)C1CC(=O)N1CCCCO1 (configuration not stated),-15%
Cc1nc(-c2ccc(F)cc2)sc1CCNC(=O)C(=O)Nc1ccc2c(c1)OCO2,17%
c1ccc(Nc2nc(-c3cccnc3)cs2)nc1,-13%
O=C(OCc1cc(=O)n2nc(-c3cccs3)sc2n1)c1ccc(Cl)cc1,7%
COc1cc(Cn2c(-c3nonc3N)nc3ccccc32)ccc1C,1%
COc1cc(F)ccc1S(=O)(=O)n1c(C)nc2ccccc21,-6%
O=C(O)c1ccc(-n2cccc2/C=C2/NC(=O)N(c3ccccc3)C2=O)cc1,-14%
Cc1ccccc1NS(=O)(=O)c1cc(C(=O)N2CCCC2)ccc1Cl,-13%
COCCNc1ccc(-c2nc(-c3ccncc3)no2)cc1[N+](=O)[O-],19%
COCCn1c(-c2ccccc2F)n[nH]c1=S,27%
CCN=C(NCC)SC1CC(=O)N(CCc2ccccc2)C1=O (configuration not stated),-20%
COCCn1nnnc1C(c1cc2cc(C)ccc2[nH]c1=O)N1CCc2ccccc21 (configuration not stated),1%
Cc1ccc2oc3c(c(=O)c2c1)C(c1cccc(O)c1)N(c1ccccn1)C3=O (configuration not stated),0%
Cc1nc(Nc2ccc(Cl)cc2Cl)sc1C(=O)Nc1ccccc1,-17%
Cc1ccccc1Cn1nc(C)c(NC(=O)C2(C)CC2(Cl)Cl)c1C (configuration not stated),-12%
CCc1ccccc1NC(=O)CC(NCc1ccccc1)C(=O)O (configuration not stated),-6%
Cc1ccc(C)c(CN2C(=O)c3ccccc3S(=O)c3ccc(C(=O)N4CCN(c5ccccn5)CC4)cc32)c1 (configuration not stated),1%
Cc1ccc(C(=O)N2C(=O)C(c3ccccc3)Oc3ccccc32)cc1 (configuration not stated),1%
CC(C)C(=O)N1CCN(c2ccc(NC(=O)c3ccc4c(c3)OCCO4)cc2)CC1,-3%
CCOc1ccc(-c2nn[nH]n2)cc1,?
COc1cc(C(=O)N/N=C/c2cn(Cc3ccccc3)c3ccccc23)ccc1O,-1%
COC(=O)C(C)Oc1cc(OC(C)C(=O)OC)c2c(C)c(Cl)c(=O)oc2c1 (configuration not stated),-5%
CC(C)CCN(C(=O)c1cc(=O)[nH]c2ccccc12)c1c(N)n(Cc2ccccc2)c(=O)[nH]c1=O,-23%
CC1CC(=O)N(CC(=O)Nc2cccc(F)c2)c2ccccc2S1(=O)=O (configuration not stated),2%
CCCOc1ccc(-c2nn(-c3ccccc3)cc2/C=C2\SC(=S)N(C3CCS(=O)(=O)C3)C2=O)cc1 (configuration not stated),-8%
Cc1cnc2c(C(=O)O)cnn2c1,-5%
CCOC(=O)c1cc2sccc2n1Cc1ccccc1,12%
O=C1/C(=C\c2ccc(-c3ccccc3[N+](=O)[O-])o2)C(c2ccccc2)=NN1c1ccccc1,-23%
CC(C)(/C=N/O)/[N+]([O-])=C/c1ccco1,-5%
CC(C)OP(=O)(CCP(=O)(OC(C)C)OC(C)C)OC(C)C,7%
CCCCN1C[C@H](C)[C@@H](CC(=O)NCc2ccccc2)C1=O,6%
COc1ccccc1OCC(=O)Nc1ccc(S(=O)(=O)Nc2cc(C)on2)cc1,5%
CCOc1cc(N2CCOCC2)c(OCC)cc1NC(=O)Cc1cccc(OC)c1,-1%
Cc1cc(C)cc(C(=O)N2CC(=O)Nc3ccc(C)cc3C2c2ccccc2)c1 (configuration not stated),1%
Cc1ccc(NC(=O)CN2CCN(C(=O)c3ccco3)CC2)cc1S(=O)(=O)N(C)C,-10%
COc1ccc(C2=NN(C(=O)CN3CCCCC3)C(c3ccc(OC)cc3)C2)cc1 (configuration not stated),1%
O=C(/C=C/c1ccc(Cl)cc1)N1CCN(c2ccc([N+](=O)[O-])c(N3CCOCC3)c2)CC1,-10%
# (next part)
SMILES,VDR inh
CC(=O)N(C(C)=O)n1c(/C=C/c2cccc([N+](=O)[O-])c2)nc2ccccc2c1=O,-7%
COc1ccc(-c2cc(C(=O)N3CCCC3)no2)cc1OC,-10%
O=C(Cn1ccc(NC(=O)OCc2ccccc2)nc1=O)NCc1nc2ccccc2[nH]1,?
Cc1nc(SCC(=O)Nc2ccccc2F)[nH]c(=O)c1Cc1ccccc1,11%
Cc1nc(NCCc2cnc[nH]2)c2oc3ccccc3c2n1,-3%
CC(NS(=O)(=O)c1ccc(Cl)cc1)C(=O)Nc1ccc2c(c1)OCCO2 (configuration not stated),4%
Fc1ccc(CNc2ncnc3cc(Cl)ccc23)cc1,18%
CCCCn1nnc(NC(=O)c2ccc(-c3ccccc3[N+](=O)[O-])o2)n1,1%
Cc1ccc(NC(=O)C2C(C(=O)O)C3C=CC2C32CC2)cc1 (configuration not stated),?
Cc1cc(C)cc(OCC(=O)Nc2ccc(-c3nc4ccccc4o3)cc2)c1,-14%
COC(=O)c1ccc(CN=C(NS(=O)(=O)c2ccccc2)c2ccccc2)cc1,-1%
CCc1ccc(N(C(=O)CNC(=O)c2cccs2)C(C(=O)NC(C)(C)C)c2cc(OC)c(OC)c(OC)c2)cc1 (configuration not stated),8%

# Entries listed so far with a nitro group on carbon (7):
SMILES,VDR inh
CCOc1ccc(/C=N/Nc2ccc(C(F)(F)F)cc2[N+](=O)[O-])cc1O,-18%
Cn1ncc([N+](=O)[O-])c1C(=O)N1CCCCCC1,-8%
COCCNc1ccc(-c2nc(-c3ccncc3)no2)cc1[N+](=O)[O-],19%
O=C1/C(=C\c2ccc(-c3ccccc3[N+](=O)[O-])o2)C(c2ccccc2)=NN1c1ccccc1,-23%
O=C(/C=C/c1ccc(Cl)cc1)N1CCN(c2ccc([N+](=O)[O-])c(N3CCOCC3)c2)CC1,-10%
CC(=O)N(C(C)=O)n1c(/C=C/c2cccc([N+](=O)[O-])c2)nc2ccccc2c1=O,-7%
CCCCn1nnc(NC(=O)c2ccc(-c3ccccc3[N+](=O)[O-])o2)n1,1%

# (continued)
SMILES,VDR inh
CCOC(=O)c1c[nH]c2c(C)ccc(Cl)c2c1=O,79µM*
C[C@H](NC(=O)c1nc[nH]c1C(=O)N[C@@H](CCCCN)C(=O)OC(C)(C)C)C(=O)OCc1ccccc1,-9%
COc1ccccc1C(=O)Nc1ccc(C(=O)c2ccccc2)cc1,-3%
CCOc1ccccc1NC(=O)c1nc[nH]c1C(=O)Nc1ccccc1OCC,12%
Cc1ccc(CNC(=O)C2CCCN(S(=O)(=O)c3ccc(F)cc3)C2)cc1 (configuration not stated),3%
O=C(Cc1ccccc1Cl)NCc1cccnc1,3%
Nc1ccc2c(c1)Cc1cc(N)c(Cl)cc1-2,-5%
CCCC(=O)Nc1nc(-c2ccc(Cl)s2)cs1,-20%
COc1ccccc1S(=O)(=O)CC(O)COc1ccc(F)cc1Cl (configuration not stated),-20%
CCCOc1ccccc1OCC(=O)Nc1ccc(S(=O)(=O)N2CCCC2)cc1,-11%
COc1ccc(-c2csc(NC(=O)CN3C(=O)NC4(CCCC4)C3=O)n2)cc1,-11%
O=C(C1CCN(C2CC(=O)N(c3ccc(F)cc3)C2=O)CC1)N1CCOCC1 (configuration not stated),5%

# Another view of part of the listing above:
Molecule	VDR inh
CCOC(=O)c1c[nH]c2c(C)ccc(Cl)c2c1=O	79µM*
C[C@H](NC(=O)c1nc[nH]c1C(=O)N[C@@H](CCCCN)C(=O)OC(C)(C)C)C(=O)OCc1ccccc1	-9%
COc1ccccc1C(=O)Nc1ccc(C(=O)c2ccccc2)cc1	-3%
CCOc1ccccc1NC(=O)c1nc[nH]c1C(=O)Nc1ccccc1OCC	12%
Cc1ccc(CNC(=O)C2CCCN(S(=O)(=O)c3ccc(F)cc3)C2)cc1 (configuration not stated)	3%

# (next part)
SMILES,VDR inh
O=C(NCCc1c[nH]c2ccccc12)/C(=C/c1cccnc1)NC(=O)c1ccco1,-6%
COc1ccc(NC(=O)CN2C(=O)c3cccnc3Sc3ccccc32)cc1OC,9%
Cc1ccccc1NC(=O)CSc1ccc(-c2cccs2)nn1,17%
CCN(CC)S(=O)(=O)c1ccc(NC(=S)Nc2ccccc2)cc1,-7%
CCc1ccc(C(=O)COC(=O)C(CCSC)NC(=O)C23CC4CC(CC(C4)C2)C3)cc1 (configuration not stated),10%
CC1=N/C(=C/c2cccnc2)C(=O)O1,-9%
COc1cccc2c1OCC(C(=O)OCc1cccnc1)=C2,-10%
CCN(c1cccc(C)c1)c1ncnc2nc[nH]c12,-2%
COC(=O)c1c(NC(=O)C(C)C)sc2c1C(C(=O)OC)CC2 (configuration not stated),-3%
COc1ccc(C(=O)Nc2cccc(C(=O)N3CCCC3)c2)cc1,17%
COc1cc(/C=N/N(C)C)cc(Br)c1O,16%
Cc1nc2ccccn2c1C(=O)NCc1ccc2c(c1)OCO2,21%

# An excerpt of these results, as labelled records.
> COC(=O)c1c(NC(=O)C(C)C)sc2c1C(C(=O)OC)CC2 (configuration not stated)
  VDR inh = -3%

> COc1ccc(C(=O)Nc2cccc(C(=O)N3CCCC3)c2)cc1
  VDR inh = 17%

# (continued)
SMILES,VDR inh
CCOC(=O)C(=O)C1=CN(Cc2ccccc2)C=C(C#N)C1,?
Cc1ccc2c(c1)c1c(c(=O)n(Cc3ccccc3)c(=O)n1Cc1cccc(C(F)(F)F)c1)n2C,1%
COc1ccc(NC(=O)c2ccc(S(=O)(=O)N3CC(C)OC(C)C3)cc2)cc1 (configuration not stated),-4%
COc1ccc(CC(=O)NCc2cccc(CNC(=O)Cc3ccc(OC)c(OC)c3)c2)cc1OC,6%
CCOC(=O)c1cc([N+](=O)[O-])sc1NC(=O)CC,-14%
COc1ccc(N(CC(=O)NC2CCCC2)C(=O)Cn2nnc(-c3ccc(C)cc3)n2)cc1OC,4%
O=C(Nc1nnc(-c2ccccc2SCc2ccccc2)s1)Nc1ccccc1F,3%
O=C(NCc1ccc(F)cc1)c1cc(Sc2ccc(F)cc2F)nc2ccccc12,7%
CCc1ccc(NC(=O)CSc2ncc(S(=O)(=O)c3cc(C)ccc3C)c(=O)[nH]2)cc1,-1%
Cc1cc2oc(=O)cc(CN(C)Cc3cccc(F)c3)c2cc1C,-7%
CCOc1ccsc1C(=O)NNC(=O)c1ccco1,8%
COc1ccc(NC(=O)CCn2nc(-c3ccccc3OC)c3c(C)cc(C)nc32)cc1,13%
COC(=O)c1ccc2c(=O)n(CCCCCC(=O)NCc3ccccc3)c(=O)[nH]c2c1,12%&5%
O=S(=O)(c1ccc2ccccc2c1)N1CCN(c2nc(-c3ccccc3)nc3ccccc23)CC1,3%
CN(C)S(=O)(=O)c1cccc(C(=O)N2CCN(Cc3ccccc3)CC2)c1,7%
COCCN=C1N[C@@H](c2ccc(Br)cc2)C(C(=O)OC)=C(C)N1Cc1ccccc1,13%
COc1ccc(OC)c(NS(=O)(=O)c2cc(OC)ccc2OC)c1,-3%
CCN(CC)S(=O)(=O)c1ccc2nc(COC(=O)c3n[nH]c4ccccc34)[nH]c2c1,1%
COc1ccc(CCNC(=O)C2CCN(S(=O)(=O)c3ccc(NC(C)=O)cc3)CC2)cc1OC,6%
COc1cc(NC(=O)CSc2nc3nc(C)c(Cc4ccccc4Cl)c(C)n3n2)cc(OC)c1,12%
Cc1cccc(-n2ccnc2CN2CCN(C(C)C)C(CCO)C2)c1 (configuration not stated),-3%
O=C(O)c1ccc(-n2cccc2)cc1O,-12%
Cc1ccc(CNC(=O)COc2ccc(C(=O)c3ccc(F)cc3)cc2)cc1,-7%
CC1=N/C(=C/c2cc(Br)cc(Br)c2O)C(=O)O1,-17%

# Assay outcomes as filed in PubChem BioAssay.
